Screening data as filed in PubChem BioAssay.
HCMV UL50-53 inh: inhibitors of HCMV UL50-UL53 interaction, biochemical, HTRF; HCMV UL50-UL53 nuclear egress complex (human cytomegalovirus); normalized percent inhibition; inhibition, % (concentration not given with the values); 0.15% of 190,000 active;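 active = both replicates at 50% or more, plus weaker picks with an unusually low signal ratio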;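 note: stock transfer was 100 nL into about 20 µL; 0% = negative control wells and 100% = wells with untagged competitor protein; inactives centre near -12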
Sa growth 42C: S. aureus growth inhibition at 42 and 30 °C, primary screen, LtaS inhibitor project, RN4220, two temperatures. OD600, 20 h, 42 °C; active compounds read low. 0.53% of 170,000 active. relative growth, % (test concentration not listed). AID 720641, 2013;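 active = growth at 42 °C up to 50% and 20 or more points under that at 30 °C, or under 10% at both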;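 note: 300 nL library stock went into each well; scaled to the means of positive and negative controls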
GIV-Gai inh: inhibitors of GIV peptide binding to Galpha-i3, primary screen, biochemical, fluorescence polarization, FITC-GIV GBA peptide, rat Galphai3 | AID 1224905, 2016 | 0.42% of 210,000 active | 90 min; active compounds read low; scaled: aluminum fluoride 0%, vehicle 100% | percent of control (FP), % (test concentration not listed) | Guanine nucleotide-binding protein G(i) subunit alpha-3 (Rattus norvegicus), P08753;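 active = replicate mean at 85% of control or lower, very high polarization wells dropped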;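 note: lower values mean more displacement of the GIV peptide from Galpha-i3; wells of about 15 µL received 100 nL stock; the first replicate is given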
Target sequence (P08753 whole entry, looked up): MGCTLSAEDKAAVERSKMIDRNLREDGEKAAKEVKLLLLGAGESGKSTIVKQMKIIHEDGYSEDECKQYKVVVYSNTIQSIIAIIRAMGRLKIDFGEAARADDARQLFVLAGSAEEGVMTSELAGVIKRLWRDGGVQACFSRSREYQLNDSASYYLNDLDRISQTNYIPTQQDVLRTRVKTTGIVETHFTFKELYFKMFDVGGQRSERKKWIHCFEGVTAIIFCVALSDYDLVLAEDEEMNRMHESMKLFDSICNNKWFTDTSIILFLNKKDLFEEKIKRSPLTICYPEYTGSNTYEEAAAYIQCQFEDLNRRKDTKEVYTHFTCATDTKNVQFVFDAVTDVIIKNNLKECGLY
Sa growth 42C second temp: also measured in Sa growth 42C; calls as there; relative growth, %; measured here: growth at 30 °C;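 optical density after 20 h as mean of two plates; 100% = untreated growth and lower means inhibition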
* = called active by the depositor; / = no result given.

The line under a structure holds: HCMV UL50-53 inh | Sa growth 42C | Sa growth 42C second temp | GIV-Gai inh
O=C(CN1c2ccc(Br)cc2-c2ccccc2S1(=O)=O)Nc1cccnc1
 : -6 | / | / | 104
COc1ccc(C2CCCN2C(=O)c2cccs2)cc1 (stereo not given)
 : / | 103 | 86 | 94
Cc1noc(C(=O)N2CCc3ccccc3C2)c1Cl
 : -7 | / | / | 110
CCn1c(C(O)c2cc(C(C)(C)C)c(O)c(C(C)(C)C)c2)nc2ccccc21 (stereo not given)
 : 1 | 32 | 29 | /
CCN(CC)C(=O)c1cccc(Nc2ccc(-c3ccccc3OC)nn2)c1
 : -24 | 84 | 82 | 99
Cc1cc2nc(C(F)(F)F)c(=O)n(CC(=O)NCC3CCCO3)c2cc1C (stereo not given)
 : -49 | / | / | 104
CCn1nc(C)c(CCNC(=O)c2cc3c(=O)n(Cc4ccc(OC)cc4)ccc3nc2C)c1C
 : -13 | 110 | 85 | 95
CCOC(=O)CN1C(=O)C(O)(CC(=O)c2ccc3c(c2)OCO3)c2ccccc21 (stereo not given)
 : 2 | 96 | 98 | 103
Cc1ccc(-n2c(=O)c3c(cnn3C)n(Cc3cc(C)ccc3C)c2=O)cc1
 : -12 | / | / | 102
CCCN(CCC)C(=O)Cn1c(=O)n(-c2ccc(Cl)c(Cl)c2)c(=O)c2c(C)c(C(=O)N(C)C)sc21
 : / | 91 | 91 | 101
CCn1cc(C(=O)NN)c(=O)c2cc(F)c(NC3CCCCC3)cc21
 : -4 | 104 | 89 | 104
CN(Cc1ccccc1)C(=O)C1c2ccccc2C(=O)N(C)C1c1cccs1 (stereo not given)
 : / | 115 | 87 | 104
COc1ccc(-c2nonc2NC(=O)COc2ccc(C(C)(C)C)cc2)cc1C
 : -9 | / | / | 106
O=C(N/C=C/c1ccsc1)Sc1ccc(Cl)cc1
 : -12 | 78 | 6 | 106
CCOc1nc2cccnc2n(Cc2cccc(Cl)c2)c1=O
 : -8 | 98 | 95 | 103
COc1cccc(NC(=O)C2CCCN(c3nc4cccnc4n(Cc4ccccc4)c3=O)C2)c1 (stereo not given)
 : -29 | / | / | 106
O=C(COC(=O)c1cc2ccccc2[nH]1)c1ccccc1
 : -27 | 93 | 96 | /
CCOC(=O)c1cc(CO)cc(C(=O)OCC)c1
 : 5 | 102 | 96 | 103
CC(=O)Nc1nnc(CC(=O)N/N=C/c2ccc(Cl)cc2)s1
 : -12 | 94 | 84 | 105
COc1cc2c(cc1OC)C(/C(C#N)=N\O)=NC(C)(C)C2
 : -39 | 89 | 79 | 105
COc1ccc(NC(=O)c2ccco2)cc1NC(=O)COc1cc(C)cc(C)c1
 : 0 | 82 | 76 | 108
COc1ccc(NC(=O)C2CC(=O)NC(=Nc3ccccc3)S2)cc1 (stereo not given)
 : / | 105 | 85 | 101
CN(/N=C(\C#N)C(=O)C1CC1)c1ccc(Cl)cc1
 : -18 | 101 | 88 | 102
COc1ccc(/C=C2\CSc3ccccc3C2=O)cc1
 : 0 | 77 | 53 | 104
OC1(C(F)(F)F)CC(c2ccc3c(c2)Nc2ccccc2S3)=NN1 (stereo not given)
 : -16 | 36 | 22 | 107
CCC1CSC(Nc2ccccc2C(F)(F)F)=N1 (stereo not given)
 : -4 | 96 | 95 | /
CCOC(=O)C1CCN(CN2C(=O)C(=Nc3ccc(C)c(C)c3)c3ccccc32)CC1
 : -29 | 89 | 92 | 107
COC(=O)c1c(F)c(F)c(F)c(F)c1C(=O)OC
 : 8 | 87 | 77 | 104
Cc1noc(N)c1-c1nc(-c2ccc(Cl)cc2Cl)cs1
 : 4 | 100 | 103 | 109
Cc1cc(OCc2nnc3n2CCCCC3)ccc1Cl
 : -5 | 85 | 98 | /

The line under a structure holds: HCMV UL50-53 inh | Sa growth 42C | Sa growth 42C second temp | GIV-Gai inh
CN(C)C(=O)COC(=O)c1ccccc1NCCO
 : -29 | 92 | 83 | /
CC(C)NC(=O)CCc1nc(-c2ccc(Cl)cc2)no1
 : / | 121 | 81 | 104
CC(CC(=O)c1ccccc1)CC(=O)c1ccccc1
 : 1 | 97 | 91 | /
COCC(C)NCc1cc(C)c(OC)cc1C (stereo not given)
 : 5 | 101 | 110 | 103
COc1cccc(C(=O)Nc2cccc(NC(=O)c3ccc(Cl)cc3Cl)c2)c1
 : -19 | 109 | 89 | 105
O=S(=O)(c1ccc(-c2ccc(S(=O)(=O)N(CCO)CCO)cc2)cc1)N(CCO)CCO
 : -4 | 83 | 101 | 101
CCC(Sc1nnc(C)s1)C(=O)Nc1nccs1 (stereo not given)
 : 10 | 96 | 98 | 105
CSc1cccc(C(=O)Nc2sccc2C#N)c1
 : -32 | 92 | 29 | 108
O=C(CSc1c(-c2ccccc2)c2cc(Cl)ccc2[nH]c1=O)NC1CCCC1
 : / | 96 | 75 | 100
O=C(Nc1cccc2c1C(=O)c1ccccc1C2=O)c1ccc(S(=O)(=O)N2CCc3ccccc32)cc1
 : -18 | / | / | 99
COc1ccc(S(=O)(=O)N2CCN(S(=O)(=O)c3ccccc3)CC2)cc1
 : -1 | 78 | 94 | 176
CSc1nc(C)cc(OCC(=O)NCCOc2ccc(C)cc2)n1
 : -7 | 98 | 101 | 105
CC1CCCN(C(=O)C(C)OC(=O)c2c3c(nc4ccccc24)CCN(C)C3)C1 (stereo not given)
 : 10 | 92 | 96 | /
Cc1cc(=O)oc(C)c1C(=O)OCC(=O)c1ccccc1
 : 6 | 108 | 100 | 104
CC(C)S(=O)(=O)/C(C#N)=C/Nc1cccnc1
 : -24 | 99 | 97 | 104
Cc1nc2c3ccccc3n3c(CCCC(=O)N4CCOCC4)nnc3n2n1
 : 7 | 110 | 94 | 112
O=C1CSC(=Nc2ccccc2)N1S(=O)(=O)c1ccccc1
 : / | 127 | 95 | 107
O=C(Nc1ccc(F)c(Cl)c1)c1ccc(N2C(=O)CCC2=O)cc1
 : 15 | 119 | 95 | /
Nc1c(C(=O)N2CCCC2)nnn1-c1ccc(F)cc1
 : -5 | 79 | 89 | 98
CCOc1ccc(S(=O)(=O)c2cn(CC(=O)Nc3ccc(F)cc3)c3ccc(F)cc3c2=O)cc1
 : -27 | / | / | 96
Cc1cc2c(cc3c(SCc4nc(-c5ccccc5)oc4C)nnc(C)n32)o1
 : / | 109 | 87 | 105
COc1ccc(NC(=O)c2sc3nc(C)c(C(=O)Nc4ccc(C)cc4C)c(-c4sccc4C)c3c2N)cc1
 : -5 | 103 | 87 | 103
O=C(c1ccc(C(=O)N2CCCCC2)cc1)N1CCCCC1
 : -4 | 77 | 92 | /
Cc1cc(C)c2oc(C(=O)N3CCN(C)CC3)cc(=O)c2c1
 : -23 | / | / | 97
CCOC(=O)CC1=CC(C)(CC(=O)OCC)C(C#N)(C#N)C(N)=C1C#N (stereo not given)
 : -15 | 102 | 82 | 102
Cc1noc(C)c1C(=O)N1CCCSc2ccccc21
 : -43 | 77 | 83 | /
Cc1ccc(-c2csc(C3=C(O)CN(N)C3=N)n2)cc1
 : -15 | 94 | 91 | /
CCCn1c(N)c(C(=O)CN2CCCc3ccccc32)c(=O)[nH]c1=O
 : -35 | 73 | 76 | /
O=C(Oc1ccc(OC(=O)C2CCCCC2)c(Cl)c1)C1CCCCC1
 : 2 | 87 | 82 | /
NC(=O)CCOC1CCN(C(c2ccccc2)c2ccccc2)CC1
 : -15 | 89 | 94 | 107

The line under a structure holds: HCMV UL50-53 inh | Sa growth 42C | Sa growth 42C second temp | GIV-Gai inh
Nc1cccc2c1C(=O)N(C(=O)/C=C/c1cccc(F)c1)C2=O
 : -26 | 82 | 86 | /
CCOc1ccc(C(c2c(O)cc(C)n(CCOC)c2=O)N2CCN(c3ccccc3F)CC2)cc1 (stereo not given)
 : / | 69 | 89 | 100
CC(C)c1cc(N(C)C2CCCCC2)n2nc(-c3cccnc3)nc2n1
 : 9 | / | / | 101
CN(C1CCCCC1)S(=O)(=O)c1ccc2c(c1)CCN2C(=O)CCC(=O)N1CCOCC1
 : -29 | / | / | 97
CC(C)CNc1ncnc2c1cnn2-c1ccccc1
 : -19 | 102 | 64 | 105
C=CCNC(=O)c1ccc(S(=O)(=O)N(CC)c2ccccc2)cc1
 : 11 | 100 | 91 | /
Cc1ccc(-n2ncc3c(=O)n(Cc4cccc(C(F)(F)F)c4)cnc32)cc1C
 : -14 | 104 | 91 | 103
O=C(Nc1ccc(N2CCCCC2)cc1)c1ccc(=O)oc1
 : -18 | 106 | 102 | /
COc1ccc(C(=O)NCc2cn3ccccc3n2)cc1
 : 7 | 101 | 97 | 106
CC1CCc2c(sc(NC(=O)CCN3C(=O)c4ccccc4C3=O)c2C(N)=O)C1 (stereo not given)
 : -14 | / | / | 99
Cc1ccc2oc(=O)c3cnn(CC(=O)N(C)c4ccc(F)cc4)c3c2c1
 : -18 | 103 | 90 | 105
CCOC(=O)c1cccc(NC(=O)C2CCN(S(=O)(=O)c3c(C)noc3/C=C/c3ccc(C)cc3)CC2)c1
 : / | 88 | 90 | 101
Fc1ccc(Cc2nnc(Cc3ccccc3)o2)cc1
 : -2 | 111 | 93 | 94
CCCC(CCC)C(=O)N1CCN(c2ccc(NCc3ccccc3)nn2)CC1
 : -62 | 108 | 87 | 104
CC(C)OC(=O)c1cccc2c1C(=O)c1ccccc1-2
 : -26 | 106 | 79 | 103
O=C(C1CCC(Cn2c(=O)c3sccc3n(Cc3ccccc3F)c2=O)CC1)N1CCCCC1 (stereo not given)
 : / | 105 | 100 | 96
CCNC(=O)Cn1c(CO)cnc1SCC(=O)N1CCc2ccccc21
 : -30 | / | / | 103
CC(CO)(CO)NC(=O)Cc1cc(=O)[nH]c(=O)[nH]1
 : -15 | 100 | 90 | 102
NC(=O)CSc1nnnn1-c1cccnc1
 : -12 | 96 | 90 | 98
CCn1c(-c2ccc3c(c2)OCCO3)cnc1SC(C)C(=O)NC(N)=O (stereo not given)
 : -22 | 97 | 86 | /
COC(=O)c1ccccc1NC1=NCCS1
 : -8 | 106 | 94 | 105
O=C(Nc1ccccc1C(F)(F)F)c1ccccc1Cl
 : / | 96 | 89 | 107
CCOC(=O)Cc1csc2nc(-c3ccccc3)nn12
 : 0 | 108 | 92 | 105
O=C1NCCc2c(OCC(=O)N3CCCc4ccccc43)cccc21
 : -18 | 95 | 84 | 102
COc1ccc(-c2noc(CN(C(=O)C(C)Oc3ccc(C)cc3)C(C)C)n2)cc1 (stereo not given)
 : -34 | 102 | 88 | 102
CC(=O)Oc1cc2c3c(c(=O)oc2cc1C)CCCC3
 : 2 | 101 | 98 | 113
COc1ccc2c(c1)c(=O)c(S(=O)(=O)c1ccccc1)cn2Cc1ccccc1
 : / | 81 | 91 | 98
COc1ccc(-c2nc3cc(NC(=O)c4cc5ccccc5cc4OC)ccc3o2)cc1
 : -24 | / | / | 100
CCCc1nc2ccccc2c(C(=O)OC2CCOC2=O)c1CC (stereo not given)
 : 11 | 100 | 96 | /
O=C(c1ccc(Cl)cc1)N(Cc1ccccc1)c1ccccn1
 : -4 | 73 | 92 | /
COc1ccc(NC(=O)CN2C(=O)COc3ccc(S(=O)(=O)Nc4ccccc4)cc32)cc1OC
 : / | 102 | 92 | 105

A section from further up, for reference:
The line under a structure holds: HCMV UL50-53 inh | Sa growth 42C | Sa growth 42C second temp | GIV-Gai inh
CC(=O)Nc1nnc(CC(=O)N/N=C/c2ccc(Cl)cc2)s1
 : -12 | 94 | 84 | 105
COc1cc2c(cc1OC)C(/C(C#N)=N\O)=NC(C)(C)C2
 : -39 | 89 | 79 | 105
COc1ccc(NC(=O)c2ccco2)cc1NC(=O)COc1cc(C)cc(C)c1
 : 0 | 82 | 76 | 108
COc1ccc(NC(=O)C2CC(=O)NC(=Nc3ccccc3)S2)cc1 (stereo not given)
 : / | 105 | 85 | 101
CN(/N=C(\C#N)C(=O)C1CC1)c1ccc(Cl)cc1
 : -18 | 101 | 88 | 102
COc1ccc(/C=C2\CSc3ccccc3C2=O)cc1
 : 0 | 77 | 53 | 104
OC1(C(F)(F)F)CC(c2ccc3c(c2)Nc2ccccc2S3)=NN1 (stereo not given)
 : -16 | 36 | 22 | 107
CCC1CSC(Nc2ccccc2C(F)(F)F)=N1 (stereo not given)
 : -4 | 96 | 95 | /
CCOC(=O)C1CCN(CN2C(=O)C(=Nc3ccc(C)c(C)c3)c3ccccc32)CC1
 : -29 | 89 | 92 | 107
COC(=O)c1c(F)c(F)c(F)c(F)c1C(=O)OC
 : 8 | 87 | 77 | 104
Cc1noc(N)c1-c1nc(-c2ccc(Cl)cc2Cl)cs1
 : 4 | 100 | 103 | 109
Cc1cc(OCc2nnc3n2CCCCC3)ccc1Cl
 : -5 | 85 | 98 | /
CN(C)C(=O)COC(=O)c1ccccc1NCCO
 : -29 | 92 | 83 | /
CC(C)NC(=O)CCc1nc(-c2ccc(Cl)cc2)no1
 : / | 121 | 81 | 104

An unsorted share of the library. About 0.83% of those tested had a hit in this group.
